# Screening results deposited in PubChem by several laboratories.
# Sa RN4220 lethal: S. aureus RN4220 growth inhibition; actives 0.33% (n = 330,000); inhibition, % (concentration not given with the values); OD600, 16 h;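 active = z-score of -3 or lower and OD600 up to 0.18 on both plates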;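 note: plate controls were untreated cells for no effect and reference antibiotic for full effect; stock transfer was 100 nL into about 80 µL; one replicate is shown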
# BJeLR lethal: BJeLR cell viability loss. BJeLR (HRASV12) viability, CellTiter-Glo ATP luminescence, 48 h; reference of the scale not given here. inhibition, % (concentration not given with the values). actives 0.17% (n = 300,000). AID 1554;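 active = replicate mean above 50%; inconclusive = above 50% but judged a plate artefact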;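 note: 50 nL library stock added to about 25 µL; numbers are from one replicate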
# PrP 5UTR inh: inhibition of PrP 5' UTR reporter expression; actives 0.35% (n = 340,000); cell-based PrP 5' UTR mRNA reporter, plate reader; inhibition, % (no concentration beside the values);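 active = every replicate at 50% or more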;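 note: 0 = median of the neutral control wells; tested in H4 reporter cells; numbers are from one replicate; inactives centre near -14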
# Mtb hypoxia inh: Mtb hypoxia fluorescent reporter inhibition; actives 0.1% (n = 300,000); M. tuberculosis hypoxia-regulated fluorescent reporter, fluorescence; fluorescence inhibition, % (concentration not given with the values);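 active = 35 to 45% if threefold the growth effect, above 45% if 1.5-fold the growth effect; inactive = the rest, general growth blockers included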;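 note: wells of about 50 µL received 100 nL stock; 0% = vehicle wells and 100% = reference inhibitor wells; whole bacteria with a GFP reporter of the hypoxia response; strong numbers were not always called active; many hits fall short of the cut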
# Sa ugtP lethal: growth inhibition of S. aureus ugtP deletion strain | AID 1259309 | S. aureus RN4220 ugtP deletion, OD600 growth, 16 h; some inactives read as strong as hits | growth inhibition, % (test concentration not listed) | actives 0.54% (n = 330,000);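 active = z-score under -3 and OD600 up to 0.15 on both plates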;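 note: plate controls were untreated wells for no effect and antibiotic for full effect; wells of about 80 µL received 100 nL stock; the first replicate is given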
# Autofluor counter: compound fluorescence in toxin protease inhibitor counterscreen; compound autofluorescence counterscreen, microsphere flow cytometry; stronger effect = higher value; fluorescence intensity (test concentration not listed); actives 3.1% (n = 360,000);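 active = at least 3 SD above the mean of all compounds, about 16000 in these data; inconclusive = too few beads counted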;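 note: 100 nL of 1 mM stock went into each well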
# Mtb hypoxia inh growth: also measured in Mtb hypoxia inh; calls as there; growth inhibition, %; measured here: M. tuberculosis growth (absorbance);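 0% = vehicle and 100% = reference antibiotic; read after six days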
# Starred values were filed as active, the others as inactive; ? = inconclusive; . = not tested or not shown.
SMILES,Sa RN4220 lethal,BJeLR lethal,PrP 5UTR inh,Mtb hypoxia inh,Mtb hypoxia inh growth,Sa ugtP lethal,Autofluor counter
N#Cc1nc(-c2ccc(OCc3ccc(Cl)cc3)cc2)oc1NCCCn1ccnc1,4.4,-3,-11,3,7,-15,2786
O=C1C=CN(Cc2ccccc2)CC1,0.7,-3,4,21,13,-1,2965
CCOC(=O)c1c(NC(=O)CSc2ncn[nH]2)sc(C)c1C,-2.0,-5,-13,-3,-2,-20,6264
CCCN(CCC)S(=O)(=O)c1ccc(C(=O)N2CC3CCC(CC3)C2)cc1,4.9,0,-10,16,17,4,5818
CCOc1ccc(S(=O)(=O)N2CCN(C(=O)C3CSC4(C)CCC(=O)N34)CC2)cc1 (configuration not stated),1.6,.,-15,1,7,9,?
Cc1ccc(-c2oc3ccccc3c(=O)c2O)cc1,-1.4,-11,-16,.,.,3,5738
CSc1nc2sc3c(c2c(=O)[nH]1)CC(C)(C)OC3,5.7,1,-15,-3,10,-2,3462
Cc1ccc2c(c1Br)/C(=N/N1C(=O)c3ccccc3C1=O)C(=O)N2,.,-8,-18,.,.,.,3128
Cc1cc(NC(=O)CCCC(=O)NCc2ccccc2)no1,1.3,0,3,9,2,7,3373
O=C(Nc1nccs1)c1nc[nH]c1C(=O)N1CCN(c2ccccc2)CC1,9.4,.,-16,10,3,0,3884
CCOc1cc(C=Nn2cnnc2)cc(Br)c1O,-5.2,.,.,3,5,0,.
C=CCS(=O)(=O)N1CCCC(C(=O)c2cccc(Cl)c2)C1 (configuration not stated),3.4,4,-25,8,3,-1,5110
C=CCN(C(=O)CCC(=O)Nc1cc(C)on1)C(C(=O)NC1CCCC1)c1ccc(C)cc1 (configuration not stated),0.9,-4,-16,3,0,5,3443
O/N=C1/CCc2cccc3cccc1c23,.,-7,-20,.,.,.,5072
CC1CCN(C(=O)COC(=O)c2cc(Cl)cc(Cl)c2N)CC1,4.1,-11,-22,11,6,-7,10206
Cc1ccc(OCCSCc2nnc(NC(=O)Nc3cccc(Cl)c3)s2)cc1,3.8,10,-18,12,1,-8,2188
COc1ccc(CCNC(=O)c2ccc(NS(=O)(=O)c3ccc4[nH]c(=O)[nH]c4c3)cc2)cc1,0.7,2,-17,-1,0,1,6250
Cc1cc(O)c(CN2CC=C(c3ccccc3)CC2)cc1C(C)C,0.7,-1,-8,-8,-5,-7,2785
O=C(NNC(=O)c1ccc2[nH]c(=O)c(=O)[nH]c2c1)c1cccc(Br)c1,-8.2,-4,-15,-9,0,-9,4139
C/C(=N\NS(=O)(=O)c1ccc(Cl)cc1)c1ccc(O)cc1,.,-2,-17,.,.,.,12994
CCOc1ccc2nc(NC(=O)c3cnccn3)sc2c1,-7.9,7,-58,15,10,-7,2703
O=C(NCc1cccs1)C1CC(c2ccc(F)cc2)=NO1 (configuration not stated),4.4,7,-27,16,12,4,2023
Cc1ccc(CCNC(=O)CCS(=O)(=O)c2ccc3nc(C)sc3c2)cc1,2.3,-4,9,.,.,-14,5797
Cc1cccc(-c2nc(CS(=O)CC(=O)N3CCCCC3)c(C)o2)c1 (configuration not stated),-2.6,-3,-14,4,16,-1,5212
COc1ccc(N2C(=O)CCC2(C(N)=O)c2ccccc2)cc1 (configuration not stated),-1.5,4,-7,-8,1,1,3309
CCN(CC)c1cccc(OC2=NS(=O)(=O)c3ccccc32)c1,2.7,27,-22,12,4,2,8255
Cc1sc(NC(=O)COc2cccc(-n3cnnn3)c2)c(C#N)c1C,0.9,-6,-12,3,-1,5,?
COc1ccc(NC(=O)CCCN2C(=O)CCC2=O)cc1Cl,0.2,1,-21,.,.,-3,2852
CC(=O)Nc1cccc(C(C)=NNc2nc3ccccc3s2)c1,-1.2,.,.,7,0,-15,.
O=C(c1ccc(F)cc1)N1CCCC(c2ccccc2)C1 (configuration not stated),0.3,-9,-1,19,12,8,3271
COc1ccc(OC)c(N(C(=O)c2snc(C(N)=O)c2N)C(C(=O)NCc2ccccc2)c2ccc(O)cc2)c1 (configuration not stated),2.2,2,0,15,-4,3,3089
CC(C)Sc1ccc(C(=O)Nc2ccc(F)cc2F)cn1,0.6,3,18,-2,9,7,4834
COCC(C)NC(=O)c1oc2c(c1C)C1(CCC2)SCCS1 (configuration not stated),0.4,-7,-24,5,1,10,2499
CCc1nc(SCC(=O)Nc2ccccc2OC)c2c(C)c(C)sc2n1,-2.7,-4,-5,4,5,2,4345
O=C1c2ccccc2S(=O)(=O)c2cc(C(=O)N3CCN(c4ncccn4)CC3)ccc21,.,-1,-18,.,.,.,2906
COC(=O)c1cc(S(=O)(=O)C(C)C)c(S(C)=O)s1 (configuration not stated),0.1,1,-10,11,11,13,3882
CCN(CC)CCOC(=O)c1cc(Cl)c(N)cc1OC,1.2,.,9,0,0,1,5880
CC(=O)c1c(C)[nH]c(C(=O)COC(=O)C2CC2)c1C,0.7,10,-7,1,-3,0,5651
O=C(Nc1ccncc1)c1ccc(Cl)c(S(=O)(=O)N2CCCC2)c1,1.7,13,-27,11,4,2,.
Cc1cc(OCC(=O)NCCc2c[nH]c3ccccc23)c2c(C)cc(=O)oc2c1,6.4,-1,-33,.,.,9,5491
CNc1c([N+](=O)[O-])cnn1-c1ccccc1Cl,3.0,-6,-30,0,11,1,23635*
COc1ccc(CN2CCC(C(=O)N(C)CCc3ccc(OC)c(OC)c3)CC2)c(OC)c1,4.0,-6,-6,5,9,-2,2445
CCCCCCCCCCn1cc(C(C)=O)c(=O)[nH]c1=O,1.8,1,-5,-1,-4,1,4260
C=CCNC(=S)Nc1ccc2nsnc2c1,.,2,-31,.,.,.,1994
COc1ccc(C(=O)Oc2ccc(C=NNC(=O)Cc3ccc([N+](=O)[O-])cc3)cc2)cc1,3.5,.,.,5,4,-1,.
O=C(Cc1ccccc1)NN=Cc1ccc([N+](=O)[O-])s1,24,.,.,2,3,2,.
Cc1ccc(S(=O)(=O)NCC(=O)NCC2COc3ccccc3O2)cc1C (configuration not stated),1.9,.,-8,3,-2,-1,8531
COc1ccc(-c2cc(-c3nnc(COC(=O)CC4CCCC4)o3)c3ccccc3n2)cc1OC,4.4,-9,11,2,5,-2,2204

# A second format for some results above.
mol	Sa RN4220 lethal	BJeLR lethal	PrP 5UTR inh	Mtb hypoxia inh	Mtb hypoxia inh growth	Sa ugtP lethal	Autofluor counter
COc1ccc(OC)c(N(C(=O)c2snc(C(N)=O)c2N)C(C(=O)NCc2ccccc2)c2ccc(O)cc2)c1 (configuration not stated)	2.2	2	0	15	-4	3	3089
CC(C)Sc1ccc(C(=O)Nc2ccc(F)cc2F)cn1	0.6	3	18	-2	9	7	4834
COCC(C)NC(=O)c1oc2c(c1C)C1(CCC2)SCCS1 (configuration not stated)	0.4	-7	-24	5	1	10	2499
CCc1nc(SCC(=O)Nc2ccccc2OC)c2c(C)c(C)sc2n1	-2.7	-4	-5	4	5	2	4345
O=C1c2ccccc2S(=O)(=O)c2cc(C(=O)N3CCN(c4ncccn4)CC3)ccc21	.	-1	-18	.	.	.	2906
COC(=O)c1cc(S(=O)(=O)C(C)C)c(S(C)=O)s1 (configuration not stated)	0.1	1	-10	11	11	13	3882
CCN(CC)CCOC(=O)c1cc(Cl)c(N)cc1OC	1.2	.	9	0	0	1	5880
CC(=O)c1c(C)[nH]c(C(=O)COC(=O)C2CC2)c1C	0.7	10	-7	1	-3	0	5651
O=C(Nc1ccncc1)c1ccc(Cl)c(S(=O)(=O)N2CCCC2)c1	1.7	13	-27	11	4	2	.
Cc1cc(OCC(=O)NCCc2c[nH]c3ccccc23)c2c(C)cc(=O)oc2c1	6.4	-1	-33	.	.	9	5491
CNc1c([N+](=O)[O-])cnn1-c1ccccc1Cl	3.0	-6	-30	0	11	1	23635*
COc1ccc(CN2CCC(C(=O)N(C)CCc3ccc(OC)c(OC)c3)CC2)c(OC)c1	4.0	-6	-6	5	9	-2	2445
CCCCCCCCCCn1cc(C(C)=O)c(=O)[nH]c1=O	1.8	1	-5	-1	-4	1	4260
C=CCNC(=S)Nc1ccc2nsnc2c1	.	2	-31	.	.	.	1994
COc1ccc(C(=O)Oc2ccc(C=NNC(=O)Cc3ccc([N+](=O)[O-])cc3)cc2)cc1	3.5	.	.	5	4	-1	.
O=C(Cc1ccccc1)NN=Cc1ccc([N+](=O)[O-])s1	24	.	.	2	3	2	.
Cc1ccc(S(=O)(=O)NCC(=O)NCC2COc3ccccc3O2)cc1C (configuration not stated)	1.9	.	-8	3	-2	-1	8531
COc1ccc(-c2cc(-c3nnc(COC(=O)CC4CCCC4)o3)c3ccccc3n2)cc1OC	4.4	-9	11	2	5	-2	2204

# Next structures.
SMILES,Sa RN4220 lethal,BJeLR lethal,PrP 5UTR inh,Mtb hypoxia inh,Mtb hypoxia inh growth,Sa ugtP lethal,Autofluor counter
O=C(Cn1cc(C(F)(F)F)cc(Cl)c1=O)NC1CCS(=O)(=O)C1 (configuration not stated),4.8,.,-13,17,5,4,3654
CS(=O)(=O)NNC(=O)c1cc2cc3ccccc3nc2s1,2.4,.,-10,-3,-8,-6,4867
CC(=O)N1c2ccc(S(=O)(=O)N(C)CC(=O)N(C)Cc3ccccc3)cc2CC1C (configuration not stated),3.5,-5,0,5,4,3,6233
CCN(Cc1ccccc1)C(c1ccc(C)cc1)c1nnnn1C(C)(C)CC (configuration not stated),4.7,8,-11,12,2,3,3873
Cc1cc(=O)oc2cc(NC(=O)CN3C(=O)NC(C)(c4ccccc4)C3=O)ccc12 (configuration not stated),2.0,9,-28,1,-4,6,?
Cc1cc(C)c(NC(=O)c2cccc(NC(=O)c3ccco3)c2)c(C)c1,6.1,-1,-36,10,10,0,4126
CC(C)(C)c1ccc(-c2n[nH]c(=S)n2/N=C/c2ccncc2)cc1,.,-8,-12,.,.,.,2503
N#CC1=C(SCC(N)=O)NC(=O)CC1c1cccc2ccccc12 (configuration not stated),3.6,.,-12,-1,4,-4,3296
O=C(CSc1nnc(-c2ccc(F)cc2)o1)Nc1ccc(S(=O)(=O)N2CCCCCC2)cc1,6.5,7,-30,16,3,-8,13292
CCc1ccc(NS(=O)(=O)c2c(C(=O)N3CCOCC3)c(C)n(C)c2C)cc1,3.1,-1,-11,13,0,10,4264
CCOC(=O)c1nn(-c2ccccc2)cc1O,4.1,7,-12,7,-3,6,3967
CN(CC(=O)Nc1ccc(Cl)c(C(F)(F)F)c1)CC(=O)NC1CCCCC1,2.7,.,-16,8,25,-10,5580
COc1ccc2oc(=O)c(C(=O)N3CCN(c4ccc(F)cc4)CC3)cc2c1,2.3,-4,-24,.,.,1,2517
CCOC(=S)NC(=NS(C)(=O)=O)c1ccccc1,-0.1,.,.,-3,1,-11,.
Cc1ccc(NC(=O)CCNCc2ccco2)cc1S(=O)(=O)N(C)C,5.2,-8,-26,-2,-6,4,4518
CC(=NNC(=O)c1ccc(-c2ccccc2)cc1)C1C(=O)c2ccccc2C1=O,31,.,.,-1,19,42,.
NS(=O)(=O)c1ccc(NC(=O)CSc2ncccn2)cc1,-2.5,7,-16,-16,9,-5,6525
Cc1nc2c(C(=O)NCc3ccc4c(c3)OCO4)c[nH]n2c(=O)c1Cc1ccccc1F,3.3,6,-14,1,1,-20,10952
O=C(NCc1ccccc1Cl)C1CCCN1S(=O)(=O)c1ccc(F)cc1 (configuration not stated),1.3,-5,-28,-10,0,5,3610
Cc1ccc(OCC(=O)NCC(=O)Nc2ccc(F)cc2)c([N+](=O)[O-])n1,9.5,0,-38,3,6,7,10449
